Screening results: PubChem, Center for Chemical Genomics, University of Michigan
HIV TAR-Tat = TAR RNA-Tat peptide displacers, HIV-1, primary screen, biochemical, FRET, FAM/TAMRA-labeled Tat; HIV-1 TAR RNA, Tat peptide displacement FRET; hits give high values; z-score (test concentration not listed); hit rate 0.6% among 100,000;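 also: score is relative to mean and SD of negative controls; some compounds called inactive have numbers as strong as hits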
CDC25B-CDK2 inh = primary biochemical HTRF screen for blockers of M-phase inducer phosphatase 2 binding to CDK2/cyclin A | HTRF CDC25B-CDK2/CyclinA binding, anti-His/anti-Flag; hits give high values | z-score (concentration not given with the values) | P30305+P24941 | hit rate 0.72% among 94,000;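 also: score is relative to mean and SD of negative controls; strong numbers were not always called active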
* marks the source's active call; other numbers are inactive results; . = not tested or not shown.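 The calls were made as follows: active = z-score from 3 up in half or more of its runs; inactive = the rest.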

SMILES	HIV TAR-Tat	CDC25B-CDK2 inh
COc1ccc(-c2noc(COc3ccc4c(c3)CCCC4)n2)cc1OC	1	-1.3
O=C(Nc1ccc(Cl)cn1)c1cc2c(s1)-c1ccccc1SC2	-0.33	-1.4
O=C1c2cccnc2C(=O)N1Cc1ccc(S(=O)(=O)N2CCCc3ccccc32)cc1	0.62	.
O=C1C2CCCN2C(c2cccc(Br)c2)N1c1cccc(Cl)c1 (stereo not drawn)	0.67	1.1
Cc1ccc(C)c(NS(=O)(=O)c2ccc3[nH]c4c(c3c2)CCCC4)c1	-2.2	.
COc1ccc(/C=C/c2nn3cnnc3s2)cc1	1.5	-0.04
COCCCNc1ncnc2ccc(Br)cc12	.	-1.1
Cc1ccc2[nH]cc(NC(=O)NCc3ccco3)c(=O)c2c1	0.09	0.15
COc1ccccc1OCC(=O)Nc1c[nH]c(=O)[nH]c1=O	.	-2.3
Cc1noc(/C=C/N(C)C)c1S(=O)(=O)N(C)Cc1ccc(F)cc1	0.76	.
O=C1COc2ccc(S(=O)(=O)CCC(=O)NC3CCCC3)cc2N1	1.1	.
CCCc1ccc(Nc2c(C)c(C)nc3nncn23)cc1	-0.23	-0.98
Cn1c2ccccc2c2cnn(CC(=O)N3CCN(c4ncccn4)CC3)c(=O)c21	-0.2	-0.65
COc1cc2c(cc1OC)C(C)N(C(=O)c1nccnc1C(=O)O)CC2 (stereo not drawn)	.	-2.8
O=C(Nc1nc2cc(NS(=O)(=O)c3ccc(F)c(Cl)c3)ccc2s1)C1CCCCC1	1.4	.
COc1cc(OC)c2nc(C)c3c(c2c1)SCC3	.	-1.8
N#CC12C(N)=NC3(OCCO3)C1(C#N)C2c1cccc(F)c1 (stereo not drawn)	.	0.14
CC1=Nc2ccccc2N=C(N)C1c1ccc(Cl)cc1 (stereo not drawn)	.	-0.79
O=C(c1ccc(S(=O)(=O)NCc2ccco2)s1)N1CCCC1	1.6	.
COc1ccccc1Nc1nc(C)c([N+](=O)[O-])c(Nc2ccccc2OC)n1	-0.19	-0.26
COC(=O)c1cc(Br)cc(C(=O)OC)c1Cl	0.26	-0.63
CCOc1ccc(NC(=O)CC(C)S(=O)(=O)c2ccc3c(c2)CCN3C(=O)C2CC2)cc1 (stereo not drawn)	0.38	.
Cc1ccc2oc3c(c(=O)c2c1)C1(C(=O)N(C)c2ccccc21)N(CC1CCCO1)C3=O (stereo not drawn)	0.79	-0.27
COc1ccc(-n2ncc(C(=O)NCc3sccc3C)c2C)cc1	.	-1.4
O=C(c1ccccc1)c1cc2ccccc2[nH]1	.	-1.6
C=CCn1c(SCC(=O)Nc2ccc(Cl)cc2)nnc1-c1cccs1	2.8	0.41
Cn1c(C(=O)N2CCC(C(=O)N3CCN(c4ccccn4)CC3)CC2)cc2sccc21	1.4	-0.76
CC(C)c1ccc(-c2nc3c(c(=O)[nH]2)Cc2cc(F)ccc2O3)cc1	0.38	-1.5
Cc1c(Cl)cccc1Nc1n[nH]c(=O)s1	.	-1.6
O=C(c1ccc2c(Cl)c3c(nc2c1)CCC3)N1CCN(c2ccccn2)CC1	.	-2.7
Cc1ccccc1OCCn1c(C(O)c2ccccc2)nc2ccccc21 (stereo not drawn)	1.7	-0.75
O=C1N(Cc2ccc(Cl)cc2)c2ccccc2S(=O)(=O)N1Cc1ccc(F)cc1	1.2	.
Cc1cn2c(=O)cc(CSCC(=O)Nc3ccc(F)cc3)nc2s1	0.06	.
COc1cc(Br)c(C2CC(=O)NC(C)=C2C(=O)OC2CCCC2)cc1OC (stereo not drawn)	0.58	-2
CC(C)(C)NC(=O)c1nn2c(c1Br)NC(c1cccs1)CC2C(F)(F)F (stereo not drawn)	.	-0.44
Cc1ccc(Nc2nc(-c3c(C)nc4ccccn34)cs2)cc1	-1.1	-1.3

Quoted at random: 6 entries already listed, in no set order.
SMILES	HIV TAR-Tat	CDC25B-CDK2 inh
CC(C)(C)NC(=O)c1nn2c(c1Br)NC(c1cccs1)CC2C(F)(F)F (stereo not drawn)	.	-0.44
CC(C)c1ccc(-c2nc3c(c(=O)[nH]2)Cc2cc(F)ccc2O3)cc1	0.38	-1.5
Cc1ccc(Nc2nc(-c3c(C)nc4ccccn34)cs2)cc1	-1.1	-1.3
O=C(c1ccccc1)c1cc2ccccc2[nH]1	.	-1.6
C=CCn1c(SCC(=O)Nc2ccc(Cl)cc2)nnc1-c1cccs1	2.8	0.41
COc1cc(Br)c(C2CC(=O)NC(C)=C2C(=O)OC2CCCC2)cc1OC (stereo not drawn)	0.58	-2

Returning to the listing; the 2 compounds before the break are reprinted first.
SMILES	HIV TAR-Tat	CDC25B-CDK2 inh
CC(C)(C)NC(=O)c1nn2c(c1Br)NC(c1cccs1)CC2C(F)(F)F (stereo not drawn)	.	-0.44
Cc1ccc(Nc2nc(-c3c(C)nc4ccccn34)cs2)cc1	-1.1	-1.3
COc1nnc(-c2ccc(N3CCOCC3)c(NC(=O)NC3CCCCC3)c2)c2ccccc12	0.25	-1.4
Cc1ccc(Cl)cc1N1CCN(C2=NS(=O)(=O)c3ccccc3N2)CC1	0.14	.
O=C(CCc1nnc2c(=O)n(-c3cccc(F)c3)ccn12)N1CCN(C2CCCCC2)CC1	-1.8	.
CC1(C)CC(n2c(SCC(=O)c3ccc(Br)cc3)nc3ccccc3c2=O)CCO1 (stereo not drawn)	0.64	-0.23
O=C1CCCC2=C1C(c1ccco1)N(Cc1ccc(Cl)cc1)c1ccccc1N2 (stereo not drawn)	0.42	.
COc1ccc(Br)cc1S(=O)(=O)NC(=O)/C=C/c1ccccc1Cc1ccc2ccccc2c1	.	-2.2
Cn1nnc2c(N3CCN(c4ccccc4Cl)CC3)ncnc21	2.6	.
O=C1Cc2cc(S(=O)(=O)N3CCN(c4cccc(Cl)c4)CC3)cc3c2N1CCC3	1.8	.
CN1CCN(c2nc3c(c(=O)[nH]c(=O)n3C)n2Cc2ccccc2F)CC1	1.3	1.3
CCc1ccc(-c2cn3c4ccccc4nc3n2CCO)cc1	0.24	-1.1
COc1ccc(C2C3=C(CC(C)(C)CC3=O)Nc3[nH]c(=O)[nH]c(=O)c32)cc1 (stereo not drawn)	.	-0.89
COc1ccc(-c2noc(COc3ccc(Br)cc3)n2)cc1	2.4	-0.71
CCCCSc1nnc(NC(=O)c2nn(-c3ccc(C)cc3)ccc2=O)s1	0.5	-1.8
Cn1c2ccccc2c2cc(C3Nc4ccccc4C(=O)N3Cc3ccco3)ccc21 (stereo not drawn)	.	-7.5
Cc1ccc(S(=O)(=O)NCCOc2nc(NC(C)C)nc(NC(C)C)n2)cc1	-0.05	1.3
O=C(CSc1nc2ncccc2[nH]1)N1CCN(c2ccc(F)cc2)CC1	1.4	.
COc1ccc(C2NC(=O)c3n[nH]c(-c4cccs4)c32)c(OC)c1 (stereo not drawn)	0.03	0.35
O=C(Oc1ccc(C2=NCCS2)cc1)c1ccccc1Cl	.	-1.4
CCCCCc1ccc(S(=O)(=O)N2CCN(CCc3ccccc3)CC2)cc1	.	-1.9
Cc1nc(-c2cnccn2)sc1C(=O)N1CCN(C)CC1	.	-0.12
Fc1ccc(-c2cc3ncc4c(n3n2)-c2cc(F)ccc2OC4)cc1	-1.3	-2.1
Cc1ccc2cc(-c3noc(CCC(N)=O)n3)c(=O)[nH]c2c1	6.9*	-0.22
COC(=O)c1cc(S(=O)(=O)N(C)CC2COc3ccccc3O2)c[nH]1 (stereo not drawn)	1.4	.
CC1(C)CC(=O)C2=C(C1)N=C1c3ccccc3C(=O)C1C2c1ccccc1Cl (stereo not drawn)	2.3	-1.1
O=C(C1CCC(CNc2c(N3CCCC3)c(=O)c2=O)CC1)N1CCN(c2ccccc2)CC1 (stereo not drawn)	.	0.11
COC(=O)c1cccc(NC(=O)CCN2C(=O)c3cccc([N+](=O)[O-])c3C2=O)c1	.	-3.2
CC(C)(C)C(=O)N1CCN(C2c3ccccc3-c3ccccc32)CC1	.	-1.2
CCN(C(=O)Cn1c(-c2cncs2)nc2ccccc21)c1ccccc1	0.74	-1.1
CCCSc1nc2c(c(=O)[nH]1)C(c1ccc(OC)c(OC)c1)C(C(=O)OC)=C(C)N2 (stereo not drawn)	-0.15	-1.4
COc1ccc(N(C)S(=O)(=O)c2ccc3c(c2)NC(=O)CS3)c(OC)c1	1.9	.
CS(=O)(=O)N1CCc2cc(C(=O)NCc3ccc4c(c3)OCO4)ccc21	1.7	0.95
O=C(Cn1cc(C(=O)c2cccs2)c2ccccc21)NCc1cccs1	3.5	0.41
CCOC(=O)COc1ccc2oc(-c3ccc(OC)cc3)c(C(=O)OCC)c2c1	.	0.53
O=c1c(Nc2cccc(F)c2)c(-c2ccc3c(c2)CCCC3)c1=O	-1.1	.
CCOc1ccc(NS(=O)(=O)c2ccc(-c3ccc(=O)[nH]n3)o2)cc1	2.7	.
COc1ccc(S(=O)(=O)N2CN3CCN(C3)C2)cc1	-1.6	-1.2
O=c1c(Nc2ccc(F)c(F)c2)nccn1-c1ccc(Cl)cc1	1.9	-0.83
CCc1ccc(-c2cc(C)no2)cc1S(=O)(=O)N(C)c1cccc(C)c1	0.66	.
Cc1cc(C)c(Cn2cnc3onc(C)c3c2=O)c(C)c1	1.3	.
O=S(=O)(Cc1ccc(Cl)cc1)NCc1cccnc1	.	-0.66
O=C(NCC1CCCO1)c1cc2c(=O)[nH]c3ccccc3c2s1 (stereo not drawn)	.	-0.29
Cc1ccc2c(c1)C1NC(=S)NC(C)(O2)C1C(=O)N(C)C (stereo not drawn)	.	0.08
O=C(CN1C(=O)c2ccccc2S1(=O)=O)NCCSCc1ccc(Cl)cc1	0.65	-0.33
CC1CCN(CCNS(=O)(=O)c2ccc(-c3ccc(=O)[nH]n3)s2)CC1	1.7	.
COc1cccc(-c2ccc(-c3noc(-c4ccc(F)cc4)n3)c(OC)n2)c1	-1.4	-1.2
COc1cc(C2C=C(C(=O)O)Nc3nnnn32)ccc1O (stereo not drawn)	1.6	.
O=C(COc1ccccc1Cl)Nc1nnc(S(=O)(=O)N2CCCC2)s1	0.68	-0.34
Cn1ncc2c(Nc3ccc(Cl)cc3)nc(NCCCN3CCOCC3)nc21	1.3	.
CCOC(=O)C1=C(C)NC2=C(C(=O)CCC2)C1c1ccc(Cl)cc1 (stereo not drawn)	-0.53	-1.7
Cc1nn(C(C)C(=O)NC2CCCC2)c(=O)c2cc3occc3n12 (stereo not drawn)	0.85	0.32
O=C(NCc1ccco1)C1CCCN1S(=O)(=O)c1ccc2ccccc2c1 (stereo not drawn)	1.7	-0.84
CC(=O)N1c2ccc(S(=O)(=O)N3CCC(C(=O)NCCC4=CCCCC4)CC3)cc2CC1C (stereo not drawn)	0.13	.
Cc1nc2c3ccccc3n3c(CCCC(=O)N4CCN(c5ccccc5F)CC4)nnc3n2n1	1.7	0.33
O=c1c2c(-c3ccc(Cl)cc3)csc2ncn1CCCN1CCOCC1	0.33	-1.7
O=C1C=C(N2CCN(c3ccc(F)cc3)CC2)C2(CCCCC2)O1	-0.62	-1.7
CCCCN(C)CCCn1cnc2c([nH]c3ccccc32)c1=O	0.09	0.16
O=C(CSc1nc2c(c(=O)n1-c1ccc(F)cc1)SCC2)N1CCc2ccccc21	.	-2.1
Cc1cc(C)c(C)c(C(=O)C2OC(=O)C(C)(C)C(=O)C2(C)C)c1C (stereo not drawn)	.	-1.4
COc1cc2[nH]c3c(=O)n(Cc4ccc(Cl)cc4)cnc3c2cc1OC	3.3	-0.89
Cc1cccc(NS(=O)(=O)c2ccc3c(c2)CCN3S(C)(=O)=O)c1C	1.5	.

Compounds listed so far containing a nitro group on carbon:
SMILES	HIV TAR-Tat	CDC25B-CDK2 inh
COc1ccccc1Nc1nc(C)c([N+](=O)[O-])c(Nc2ccccc2OC)n1	-0.19	-0.26
COC(=O)c1cccc(NC(=O)CCN2C(=O)c3cccc([N+](=O)[O-])c3C2=O)c1	.	-3.2

Further compounds.
SMILES	HIV TAR-Tat	CDC25B-CDK2 inh
CC1CC(=O)Nc2ccccc2S1(=O)=O (stereo not drawn)	.	-1.7
C#CCSc1nc(C)cc(=O)[nH]1	.	-1.8
Cc1ccc(CNS(=O)(=O)c2cc3c4c(c2)CCN4C(=O)CC3)o1	1.7	.
CCC(C)NC(=O)CC1COc2ccc(Cl)cc2NC1=O (stereo not drawn)	1.1	.
Cc1nc2c(c(Nc3ccc(C(=O)O)cc3)n1)CCC2	-0.33	-1.1
O=C(CSc1nc(O)cc(=O)n1-c1ccccc1F)N1CCc2ccccc21	-2.1	-0.42
CCn1c(SCC(=O)c2c[nH]c3ccccc23)nnc1-c1cccs1	-5.8	-3.5
CCCc1cc(=O)n2nc(N3CCC(C(=O)NCCC(C)C)CC3)sc2n1	2	-0.14
CCN1C(SCc2cccc(C)c2)=NS(=O)(=O)c2ccccc21	0.34	.
NC(=O)CSc1nnc(-c2cc3ccccc3n2-c2ccccc2)o1	1.3	0.1
COc1ccccc1OCCn1c(C2CCCO2)nc2ccccc21 (stereo not drawn)	1.6	-1.3
CCOc1ccc(C2NC(=O)c3[nH]nc(-c4ccc(OC)cc4)c32)cc1 (stereo not drawn)	-0.19	.
O=C1Nc2ccccc2/C1=C/c1ccc2nsnc2c1	.	-1.6
COCC(C)NC(=O)CSc1nc2c(c(C(F)(F)F)n1)CCc1ccccc1-2 (stereo not drawn)	1.7	0.7
Fc1ccc(-c2cc(-c3nc(-c4cccnc4)no3)[nH]n2)cc1	0.75	.

At a glance, part of the list above:
SMILES	HIV TAR-Tat	CDC25B-CDK2 inh
CCN1C(SCc2cccc(C)c2)=NS(=O)(=O)c2ccccc21	0.34	.
NC(=O)CSc1nnc(-c2cc3ccccc3n2-c2ccccc2)o1	1.3	0.1
COc1ccccc1OCCn1c(C2CCCO2)nc2ccccc21 (stereo not drawn)	1.6	-1.3
CCOc1ccc(C2NC(=O)c3[nH]nc(-c4ccc(OC)cc4)c32)cc1 (stereo not drawn)	-0.19	.
O=C1Nc2ccccc2/C1=C/c1ccc2nsnc2c1	.	-1.6
COCC(C)NC(=O)CSc1nc2c(c(C(F)(F)F)n1)CCc1ccccc1-2 (stereo not drawn)	1.7	0.7
